# Screening data as filed in PubChem BioAssay.
# TRPML1 blocker: blocks the human TRPML1 channel | TRPML1-inducible cells, Ca2+ dye fluorescence, FDSS; hits give low values; inhibition of EC80 agonist-evoked calcium signal | activity change, negative = inhibition, % (concentration not given with the values) | 0.02% of 390,000 active | AID 624415 | Q9GZU1; in the data active means activity change below about -50%; inconclusive means about -30% to -50%; inactive means above about -30%;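 further: stimulus is agonist 54-4 at its EC80 concentration; on the % scale 0 is the no-effect control and ±100 the full control effect; compound concentration not given in the record; the text of the record puts the active cut at -80%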
# Target sequence (Q9GZU1 whole entry, looked up): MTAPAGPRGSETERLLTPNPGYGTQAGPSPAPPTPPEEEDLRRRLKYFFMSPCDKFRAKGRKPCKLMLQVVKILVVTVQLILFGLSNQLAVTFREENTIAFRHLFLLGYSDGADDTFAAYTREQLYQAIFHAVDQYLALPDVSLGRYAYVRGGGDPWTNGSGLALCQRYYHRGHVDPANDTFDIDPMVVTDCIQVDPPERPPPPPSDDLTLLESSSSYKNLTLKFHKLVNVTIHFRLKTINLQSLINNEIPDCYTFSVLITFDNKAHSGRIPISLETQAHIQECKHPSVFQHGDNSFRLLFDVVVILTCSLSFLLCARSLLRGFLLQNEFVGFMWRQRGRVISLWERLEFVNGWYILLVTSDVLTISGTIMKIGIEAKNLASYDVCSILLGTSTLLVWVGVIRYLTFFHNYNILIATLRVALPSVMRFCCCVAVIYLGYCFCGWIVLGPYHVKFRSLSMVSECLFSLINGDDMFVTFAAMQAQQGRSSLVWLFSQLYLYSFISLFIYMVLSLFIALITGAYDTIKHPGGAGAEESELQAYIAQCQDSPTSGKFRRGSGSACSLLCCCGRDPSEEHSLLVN
#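 TRPML1-DL cells, Tet-induced overnight (~16 h, 37 °C) at 1,500 cells/well, were loaded with Ca8 no-wash dye plus quencher for 45-90 min at room temperature. Compounds were pinned during FDSS kinetic reading; agonist 54-4 at EC80 (4 uM final) then added.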
# TRPML1 agonist: agonists of human TRPML1 channel; Q9GZU1; TRPML1-expressing cells, Ca2+ dye fluorescence, FDSS; host cell line not named in the record; reference of the full effect not given here; activation, % (no concentration beside the values); 0.12% of 410,000 active; AID 624414; in the data active = activation above about 50%; inconclusive = about 30% to 50%; inactive = below about 30%; further: 0% is about no effect; the text of the record puts the active cut at 80%
#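 Tetracycline-induced TRPML1-DL cells are seeded and incubated overnight before loading with a no-wash Ca2+ dye and quencher. Agonist activity is taken from the 110 s fluorescence read following compound pin-transfer on an FDSS, before EC80 54-4 challenge.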
# ClpP mod: qHTS Assay for Activators of ClpP; ATP-dependent Clp protease proteolytic subunit (Bacillus subtilis (strain 168)), P80244; purified B. subtilis ClpP, FRET peptide cleavage, 20 min; Potency, µM (series often up to 57.5 µM), inactives show at the top dose activity change, negative = active; 1.9% of 340,000 active; AID 651965, 2013; active = well fitted falling curve with a large enough effect; inconclusive = small, poorly fitted or top-dose-only effect; inactive = no such curve, though single readings can be large or run the other way; further: potency means the concentration at half of the fitted maximal effect; the source files actives as falling curves though it sought activators and does not explain the sign; nearly all actives have a fitted effect of over 65% in size; many hits overshoot -100%
# Target sequence (P80244 whole entry, looked up): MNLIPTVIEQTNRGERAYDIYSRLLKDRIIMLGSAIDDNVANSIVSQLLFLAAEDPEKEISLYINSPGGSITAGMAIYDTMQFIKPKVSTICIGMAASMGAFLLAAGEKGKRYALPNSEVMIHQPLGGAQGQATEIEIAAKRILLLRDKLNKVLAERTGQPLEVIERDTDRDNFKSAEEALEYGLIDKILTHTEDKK
#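 Purified B. subtilis ClpP, 10 microg/mL final in Tris/HCl pH8 with KCl, BSA, glycerol and Tween-20, cleaved an Abz/nitrotyrosine-quenched decapeptide. Fluorescence (ex 320, em 430) was read at 0 and 20 min at room temperature. Delta was normalized to 5.8 microM ADEP and DMSO/no-enzyme controls.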
# Menin-MLL FL inh: displaces fluorescein MLL peptide from human menin | Fluorescence polarization, fluorescein-MLL peptide displacement from menin | FP activity change, % at 61.4 µM | 290,000 tested, under 10 active; inconclusive = falling polarisation curve, or a change in total fluorescence; inactive = total fluorescence flat and polarisation flat or rising; no compound was filed as active; the % refers to the polarisation; negative = inhibition;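 further: % of control where 0% means no effect; inhibitors lower the polarisation; unlabelled MLL peptide was the positive control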
# PINK1 modulator: modulators of PINK1 expression; AID 624263; PINK1 immunofluorescence, high-content cytometry, 24 h; Potency, µM (series often up to 76.6 µM), without a hit: at the top dose activation (PINK1 increase), actives largely listed as activators; 0.2% of 410,000 active; active = well fitted activation curve with a large enough effect; inconclusive = small, poorly fitted or top-dose-only effect; inactive = flat fitted curve, though single readings scatter; cell line not stated here;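 further: potency means the concentration at half of the fitted maximal effect; % of control where 0% means no effect; nearly all actives have a fitted effect of over 65% in size; a mitochondrial uncoupler was the plate control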
#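 Decision-based qHTS: stable cells, 24 h exposure to five compound concentrations, CCCP as control. Fixed cells stained for PINK1 plus nuclear, mitochondrial and cell markers, cytometer read.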
# Sfp PPTase inh: blocks B. subtilis Sfp PPTase activity. Biochemical Sfp PPTase activity, qHTS. 3.5% of 310,000 active. Potency, µM, for the others: max response, negative = inhibition, actives largely listed as inhibitors; active means well fitted inhibition curve with a large enough effect; inconclusive means small, poorly fitted or top-dose-only effect, or another doubt; inactive means no such curve, though single readings can be large or run the other way;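 further: the enzyme is Sfp with the accession as filed and its product quenches rhodamine fluorescence; potency means the concentration at half of the fitted maximal effect; 0% = enzyme reaction without inhibitor and -100% = no enzyme wells; top concentration of the series not given in the record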
#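 Reaction rates are the 30-min fluorescence difference (ex 525, em 598 nm) in wells containing 15 nM Sfp, 5 uM rhodamine-CoA and 12.5 uM BHQ-2-YbbR at pH 7.6 with 10 mM MgCl2.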
# TRPV1 PAM: enhances activation of the human vanilloid receptor TRPV1; TRPV1-expressing cells, Fluo-8 calcium influx, capsaicin EC20 potentiation; host cell line not named in the record; control for the full effect not named in the record; potentiation, % at 8.33 µM; 0.02% of 320,000 active; active means potentiation above 80%; inconclusive means 30% to 80%; inactive means below 30%; further: 0% is about no effect
#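 Fluo-8 calcium influx in TRPV1-expressing cells, kinetic read (ex 480/em 520 nm). Compound added and read 3 min for agonist activity, followed by capsaicin at EC20 final and 2 min further read for enhancement.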
# * = called active by the depositor; ? = inconclusive; . = not tested or not shown; & = joins results of further samples; [ ] = another dose, or the depositor's remark.
SMILES,TRPML1 blocker,TRPML1 agonist,ClpP mod,Menin-MLL FL inh,PINK1 modulator,Sfp PPTase inh,TRPV1 PAM
N#CC(=C=[N-])C1=C(C#N)C(c2ccccc2F)C([n+]2ccccc2)C(O)(C2CC2)N1 (configuration not stated),16,2.8,-3.1%,?,6.2%[38.3 µM],-21%,-2
O=C(NCc1ccc(Cl)cc1)C1CCN(C(=O)c2ccco2)CC1,14,1.4,.,.,-1.7%,4%,5
O=C(NCC(=O)N1CCN(S(=O)(=O)c2cccs2)CC1)c1ccc(Cl)cc1,44,0.9,.,-3.2,-0.4%,7%,-2
Cn1c2ccccc2c2ncn(Cc3ccc(F)cc3)c(=O)c21,-15,-0.4,.,-2.4,11%,-11%,-3
Cc1ccc(C(=O)c2oc3ccccc3c2NC(=O)Cc2coc3c(C)c(C)ccc23)cc1,-10,0.4,-1.7%,.,-1.2%,.,.
O=C1NC(c2ccccc2)=C(c2ccc3ccccc3n2)C(c2ccncc2)N1 (configuration not stated),3,0.5,-7.5%,3.6,-2.3%[38.3 µM],14%,-2
CC(CNC(=O)Cn1c(-c2cccs2)cc2ccccc21)c1ccccc1 (configuration not stated),24,0.9,16µM*,.,0.5%,.,.
CC(C)(Oc1ccc(Cl)cc1)C(=O)OCC(=O)NCCc1ccc(S(N)(=O)=O)cc1,-12,0.2,-2.6%,.,4.9%,.,-13
O=c1cc(-c2ccccc2)oc2cccc(O)c12,.,.,1.7%,-28&-5.7,1.9%,11%&-70%,.
COc1cnc(N(C)C)nc1Sc1cccc(Cl)c1,3,0.3,?,0.4,3.0%,-1%,-17
Cc1cc(NCc2ccccn2)n2c(nc3ccccc32)c1C#N,6,4.1,3.7%,?,6.9%,5%,5
Nc1ccc2c(c1)OC1(CCCC1)O2,18,-0.1,-3.6%,?,-1.2%,1%,6
Cc1nnc(SCC(=O)NC(C)(C)C)n1CCc1ccccc1,2,-0.1,-6.0%,1.3,0.4%,7%,-28
CC(=O)C1C(c2ccc(F)cc2)C2C(C)=NN=C2CC1(C)O (configuration not stated),-17,-0.5,.,0.8,17%,0%,?
C=CCC(C#N)(c1ccc(OC)c(OC)c1)c1cnccn1 (configuration not stated),2,-0.5,0.6%,.,-0.2%,.,?
COc1ccc(NC(=O)CCN2CCN(S(=O)(=O)c3ccc(OC)cc3)CC2)cc1,-1,-1.3,0.3%,-0.6,0.2%,15%,0
Cc1cccc(C(C)C)c1NC(=O)CN1C(=O)NC(Cc2ccccc2)C1=O (configuration not stated),6,0.4,-2.5%,.,-1.4%,.,1
CC1(C)CC(=O)C(C(O)c2ccc([N+](=O)[O-])cc2)C(C)(C)N1 (configuration not stated),3,-1.1,0.4%,0.9,1.6%,18%,16
Cc1ccc(OCC(=O)OC(C)CN2CCCCC2)cc1 (configuration not stated),18,-0.4,0.5%,4.2,4.4%,-9%,23
CCc1ccc2[nH]cc(S(=O)(=O)c3ccc(C)c(C)c3)c(=O)c2c1,.,.,-1.1%,0.8,2.0%,13%,4
CCOc1ccc(-c2cn3c(n2)sc2cc(C(=O)NC(C)C45CC6CC(CC(C6)C4)C5)ccc23)cc1 (configuration not stated),6,-0.4,-8.4%,.,1.3%,.,.
CCOC(=O)C1=C(C)N(CCCCCC(=O)O)C(=O)NC1c1cccc([N+](=O)[O-])c1 (configuration not stated),-7,-0.5,0.6%,2.2,0.4%,8%,-12
CCN(CC)S(=O)(=O)c1ccc(C(=O)Nc2nnc(COC)o2)cc1,1,0.9,-2.2%,1.7,0.2%,-19%,3
O=C(CC1CCCCC1)NCCOc1ccccc1,7,-0.6,-0.5%,3.0,0.2%,4%,-6
CCCCN(C)C(=O)c1ccc2c(c1)N(Cc1cccc(F)c1)C(=O)c1ccccc1S2,-5,2.4,1.5%,.,?,.,.
CNC(=O)C1CC(=O)N(c2ccc(OCC(=O)N3CCCC3)cc2)C1 (configuration not stated),2,0.4,.,-25,-0.7%,10%,-2
CCOc1ncccc1C(=O)Nc1cccc(-n2cnnn2)c1C,-4,0.5,-2.2%,.,0.2%,.,.
O=C(CCC(=O)c1ccc(Cl)cc1)NCc1ccccc1,29,0.9,-2.1%,4.9,-0.4%,15%,-3
COc1ccc(NC(=O)CN2C(=O)COc3ccccc32)cc1OC,3,-0.2,0.0%,-1.6,0.5%,25%,-14
CCN(CC)c1ccc(NC(=S)NC(=O)Cc2ccccc2)cc1,17,1.3,2.8%,-0.2,3.2%,8%,8
COc1ccc(-c2nc(C)c(CCNC(=O)Cc3ccc(F)cc3)s2)cc1OC,-4,2.3,4.0%,.,-0.9%,.,.
N#Cc1cccnc1N1CCN(C(=O)c2ccco2)CC1,26,0.1,.,-7.0,2.1%,3%,18
CN(CC1CCOCC1)C(=O)CC1C(=O)NCCN1Cc1ccc(Cl)c(F)c1 (configuration not stated),-4,0.3,-2.4%,-15,-1.3%,13%,7
COc1ccc(-c2nn3c(-c4ccccc4)nnc3s2)cc1,9,0.2,100%,0.3,6.2%,?,-12
COc1ccc(C2/C=C\CN(C(=O)C3CCCC3)C(C)C(=O)N2Cc2ccc(F)cc2)cc1 (configuration not stated),-11,0.3,.,0.5,.,-3%,.
CC(=O)Nc1cc(C(=O)OCC(=O)c2ccc(Cl)cc2Cl)ccc1C,1,-0.7,-0.5%,0.7,?,5%,24
O=C(NCCc1ccccc1)C(=O)c1c(-c2ccccc2)[nH]c2ccccc12,27,-0.8,1.2%,2.6,0.9%,6%,3
Cc1ccnc(NS(=O)(=O)c2ccc(N3C(=O)c4c(Cl)c(Cl)c(Cl)c(Cl)c4C3=O)cc2)n1,25,0.7,0.9%,1.5,0.4%,-10%,-33
O=C(NC(=S)N1CCOCC1)c1cc2ccccc2o1,-14,-0.5,.,-3.3,-0.6%,?,-1
c1ccc(-n2ncc3c(NCc4cccnc4)ncnc32)cc1,17,-0.8,-27%,5.2,2.4%,7%,4
O=S(=O)(Cc1ccccc1Cl)NCCc1ccccc1,-9,1.0,.,2.4,-1.7%,-9%,-2
Cc1ccc(/C=C2\SC(=O)N(CCC(=O)N3CCN(C)CC3)C2=O)cc1,-22,0.6,.,-2.4,0.1%,-13%,-8
COCCCN(Cc1ccccn1)S(=O)(=O)Cc1ccccc1,32,0.9,1.6%,0.8,-2.1%,-17%,-5
O=C(O)c1ccc(CSc2nnc(COc3ccccc3)o2)cc1,3,-0.7,.,-3.9,0.2%,3%,-3
COCCNC(=O)C1(C)CCN(Cc2noc(-c3c(C)noc3C)n2)C1 (configuration not stated),.,-0.6,1.8%,.,1.6%,.,.
COc1ccc(C=C2CCC3C(=O)CCCC3(C)C2=O)cc1 (configuration not stated),66,1.3,0.3%,.,4.2%,.,.
COc1ccc(-n2c(SCC(=O)Nc3ccccc3C)nc(O)c(Cc3ccccc3)c2=O)cc1,-2,0.0,-2.1%,.,0.3%,1%,-18
COc1cc(OC)c2ccc(=O)oc2c1C(CC(=O)N1CCOCC1)c1ccc2c(c1)OCO2 (configuration not stated),21&20,1.1&0.8,-10%,1.0&-5.8,2.7%,7%&8%,2
COc1ccc(NS(=O)(=O)c2cccc(NC(=O)COc3ccccc3[N+](=O)[O-])c2)cc1,-2,0.1,0.7%,.,2.7%,.,.
O=C(O)c1cccc(NS(=O)(=O)c2cccc3nsnc23)c1,28,-0.1,0.6%,4.6,-3.6%[38.3 µM],8%,8
CCC(=O)Nc1cc(C(=O)NCc2ccc(C)cc2)ccc1S(=O)(=O)c1ccc(C)cc1,2,1.8,-21%,.,1.7%,.,.
COc1ccccc1Cn1c(=S)[nH]c2cc(C(=O)N3CCN(c4ccccc4OC)CC3)ccc2c1=O,-8,-0.5,-4.1%,.,3.8%,-2%,2
CCN(CC(=O)Nc1c(F)cccc1F)C(=O)c1ccc2c(c1)C(=O)N(c1ccccc1C)C2=O,-1,-1.2,0.0%,.,2.6%,.,.
Cc1ccc(C(C)C)c(OCC(=O)OCc2c(C)noc2C)c1,3,1.6,0.8%,3.1,0.1%,14%,4
CN(C)/C=C(\C(=O)c1cccc(Cl)c1)c1nnnn1-c1ccccc1,-13,0.5,.,2.6,-0.1%,9%,13
CCOC(=O)c1ccccc1NC(=O)CSc1cn(CC(=O)N2CCCCCC2)c2ccccc12,-13,0.5,2.0%,.,0.6%,.,.
O=C(CN1C(=O)COc2ccc(S(=O)(=O)N3CCCC3)cc21)NC1CCCCCCC1,.,.,.,-0.7,.,-6%,5
O=C(CSc1nnc(-c2ccc(F)cc2)o1)NC1CCCCC1,-2,3.4,-0.8%,-9.3,2.0%,-7%,-2
Nc1c(C(=O)O)sc2nc3c(cc12)CCCC3,-4,-0.3,-2.5%,5.5,2.2%,-15%,6
COc1ccc(-c2cn(-c3ccc(C)c(Cl)c3)c(=S)[nH]2)cc1OC,1,2.9,.,1.4,4.9%,-24%,15
# The listing continues.
SMILES,TRPML1 blocker,TRPML1 agonist,ClpP mod,Menin-MLL FL inh,PINK1 modulator,Sfp PPTase inh,TRPV1 PAM
Nc1c(C(=O)NC2CCCC2)sc2nc(-c3cccs3)ccc12,-2,0.9,-17%,7.9,11%,45µM*,19
Clc1cccc(Nc2ncnc3ccc(Br)cc23)c1,0,-0.5,-21%,4.9,1.2%[38.3 µM],-23%,-7
Fc1ccc(CNc2ccc(N3CCN(Cc4ccccc4)CC3)cc2)cc1,-7,0.5,.,3.9,3.5%,-17%,0
COc1cc2c(cc1N/C=C(\C#N)c1nc(-c3ccccc3)cs1)oc1ccccc12,-8,-1.1,.,-2.4,?,14%,-2
COc1ccccc1NCCC(=O)OCC(=O)Nc1cc([N+](=O)[O-])ccc1F,65,2.2,-0.6%,.,2.4%,.,.
CC(=O)[C@H]1CC[C@H]2[C@@H]3C=CC4=CC(=O)CC[C@@]4(C)[C@@H]3CC[C@]12C,18,0.7,0.1%,.,0.2%,.,-5
O=C(O)c1cc(-c2ccc3ccccc3n2)nc2ccccc12,-6,-0.6,.,4.7,2.1%,9%,-4
CN(Cc1cccs1)C(=O)/C=C/c1ccccc1[N+](=O)[O-],-2,-1.2,.,-3.6,-0.7%,17%,26
COc1ccc2c(c1OC)C(=O)N(c1ccc(C)c(C)c1)C2=O,-2,-1.0,-0.6%,-1.0,1.6%,18%,10
